Screens from PubChem BioAssay.
B2AR ag – agonists of human beta-2 adrenergic receptor inducing internalization; Am2.2-beta2AR cells, FAP receptor internalization, flow cytometry; reference of the scale not given here; response, % (test concentration not listed); hit rate 0.43% among 340,000; AID 504454;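 active = response above a set limit, near 3 SD of response in nonfluorescent compounds, cut at about 42% in these data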;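 note: stock transfer was 100 nL into about 11 µL; a reference agonist was the positive control; negative values mostly stem from fluorescent compounds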
Target sequence (P07550 whole entry, looked up): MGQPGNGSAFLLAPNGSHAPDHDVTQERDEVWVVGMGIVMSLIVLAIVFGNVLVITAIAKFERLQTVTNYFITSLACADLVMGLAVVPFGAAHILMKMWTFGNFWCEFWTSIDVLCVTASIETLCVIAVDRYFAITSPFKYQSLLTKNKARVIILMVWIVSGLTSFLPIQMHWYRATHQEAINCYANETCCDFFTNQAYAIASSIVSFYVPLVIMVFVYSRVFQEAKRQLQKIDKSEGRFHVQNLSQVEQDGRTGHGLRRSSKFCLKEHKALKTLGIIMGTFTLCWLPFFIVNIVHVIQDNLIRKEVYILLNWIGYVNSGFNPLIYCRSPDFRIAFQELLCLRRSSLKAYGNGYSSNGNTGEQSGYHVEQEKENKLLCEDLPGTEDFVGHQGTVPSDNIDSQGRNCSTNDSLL
RanGTP-Impb inh – inhibitors of RanGTP-importin-beta interaction, primary screen, biochemical, FRET, CFP-Ran, YFP-importin-beta, homogeneous; cell-free CFP-Ran/YFP-importin-beta FRET ratio; inhibition, % (concentration not given with the values); hit rate 1.1% among 300,000; AID 2216;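 active = most replicates above 15%; inconclusive = exactly half above 15%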;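 note: 0% = DMSO wells and 100% = Ran loaded with GDP instead of GTP; wells of about 40 µL received 100 nL stock; the first replicate is given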
LANA-H2A inh – blocks KSHV LANA binding to histone H2A/H2B | hit rate 0.6% among 320,000 | cell-free LANA-H2A/H2B peptide, fluorescence polarization | Q9QR71 | inhibition, % (no concentration beside the values); in the data active = inhibition mostly above about 10%, no sharp cut-off; inactive = mostly below about 6.7%;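 note: stock transfer was 7.5 nL into about 10 µL; 0% = median of vehicle wells and 100% = median of positive control wells; one replicate is shown; the record names a cut of 25% in any replicate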
Calb FLC – C. albicans growth modulation with fluconazole. C. albicans CaCi-2 (fluconazole-resistant clinical isolate) + fluconazole, Alamar Blue growth, 48 h. hit rate 0.57% among 300,000. growth inhibition, % (test concentration not listed). AID 1979;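 active = most replicates above 75%; inconclusive = exactly half above 75%; inactive = most below 75%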;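 note: all wells also contain fluconazole at 8 µg/ml as a sub-toxic cotreatment; 0% = median of DMSO wells and 100% = median of geldanamycin control wells; wells of about 8 µL received 7.5 nL stock; the first replicate is given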
ALR inh – blocks human ALR sulfhydryl oxidase activity. P55789. purified ALR, DTT oxidation, H2O2 HRP-luminol luminescence. inhibition, % (no concentration beside the values). hit rate 3.8% among 290,000. AID 485317;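 active = mean and each replicate at 75% or more; inconclusive = only one of the two met; inactive = neither met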;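 note: stock transfer was 7.5 nL into about 7.5 µL; 0% = neutral wells and 100% = wells with inactivated enzyme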
Target sequence (P55789 whole entry, looked up): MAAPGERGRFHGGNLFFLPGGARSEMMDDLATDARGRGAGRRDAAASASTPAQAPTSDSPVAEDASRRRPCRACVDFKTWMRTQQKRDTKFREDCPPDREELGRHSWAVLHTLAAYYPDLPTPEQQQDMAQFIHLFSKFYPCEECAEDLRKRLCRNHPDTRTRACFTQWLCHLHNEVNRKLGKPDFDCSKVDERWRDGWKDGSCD
HNF4A DNA FP – change in binding of human HNF4 alpha to DNA | hit rate 0.3% among 360,000 | HNF4a-FITC DNA binding, fluorescence polarization, 1 h | P41235 | activity change, % at 10 µM; in the data active = activity change above about 30%, passing the limit was not always enough;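 note: controls were the assay level and a saturating level of protein; the project sought stronger binding though the title names inhibitors; some compounds called inactive have numbers as strong as hits; positive values seem to mean higher polarization but the record does not say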
Target sequence (P41235 whole entry, looked up): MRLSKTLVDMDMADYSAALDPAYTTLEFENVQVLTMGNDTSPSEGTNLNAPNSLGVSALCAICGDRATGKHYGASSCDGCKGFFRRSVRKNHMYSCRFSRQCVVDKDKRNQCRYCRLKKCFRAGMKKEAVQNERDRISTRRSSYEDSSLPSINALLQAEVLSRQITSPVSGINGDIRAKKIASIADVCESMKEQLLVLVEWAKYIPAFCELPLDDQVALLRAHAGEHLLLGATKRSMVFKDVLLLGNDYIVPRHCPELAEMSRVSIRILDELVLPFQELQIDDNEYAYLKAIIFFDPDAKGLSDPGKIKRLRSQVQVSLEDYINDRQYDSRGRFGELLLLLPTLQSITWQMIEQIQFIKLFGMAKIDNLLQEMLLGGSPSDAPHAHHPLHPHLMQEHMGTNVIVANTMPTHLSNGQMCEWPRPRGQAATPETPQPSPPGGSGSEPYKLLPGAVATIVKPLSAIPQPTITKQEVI
Vif TR-FRET – HIV-1 Vif–A3G interaction blockers – biochemical, TR-FRET, GST-Vif 1-94, biotin-A3G peptide, dose response retest, primary screen (AID 1117319). TR-FRET GST-Vif / biotin-A3G peptide binding; higher % means a stronger effect; test concentration not given here; strong numbers were not always called active. inhibition, %; hits with a dose series show IC50 in µM. hit rate 0.57% among 260,000;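 active = above the screen mean plus three standard deviations and confirmed in dose response; inconclusive = results disagree or hit not tested in dose response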;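 note: Vif residues 1-94 fused to GST binding biotinylated APOBEC3G peptide 110-148; 0% = full assay without inhibitor and 100% = GST in place of GST-Vif; retest series ran down from 100 µM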
An asterisk follows results filed as active; ? = inconclusive; . = no result given; & = joins results of further samples. Compounds were not picked by outcome. Share with any hit: about 6.3%.

SMILES	B2AR ag	RanGTP-Impb inh	LANA-H2A inh	Calb FLC	ALR inh	HNF4A DNA FP	Vif TR-FRET
C[C@@H]1CCCCCCCCC(=O)OCCN(C(=O)OC(C)(C)C)[C@H](C)CCCCCCCCC(=O)OCCN1C(=O)OC(C)(C)C	4	.	1.8	.	-4	-0.9	.
CCN(CC)S(=O)(=O)c1ccc2c(c1)oc(=O)n2CC(=O)NC1CCCCC1	5	2.3	-0.1	-6	2	-1.6	.
Cc1nnc(SCC(=O)Nc2cccnc2Cl)s1	4	0.6	-3.4	1	-17	-0.4	-2%
CCCC(=O)NCc1ccccc1Cl	6	-1.4	-6.8	-27	.	-6.2	-4%
O=C(Nc1ccccc1-c1nnn(CC(=O)N2CCOCC2)n1)c1ccc(F)cc1	7	3.2	3.2	22	-4	-0.4	1%
CCCCCCOC(=O)C(C#N)c1nc2ccccc2nc1N1CCN(CC)CC1 (configuration not stated)	-7	-0.2	-3.5	26	-38	1.5	8%
Cn1cc(S(=O)(=O)NC2CCCCC2)c(=O)n(C)c1=O	9	4.3	3.2	6	0	-0.9	-1%
CC(C)=C1C2C=CC1C(C(=O)Nc1cc(C)ccc1C)C2C(=O)O (configuration not stated)	10	-1.5	-1.6	-2	1	-0.1	-6%&11%
COc1ccccc1CNC(=O)[C@H](C)NC(=O)C1CCN(C(=O)[C@@H]2CCCN2C(=O)OC(C)(C)C)CC1	4	?	-0.7	-7	0	3.3	.
Cc1ccc(S(=O)(=O)N(C)c2ccc(C(=O)NCC(c3ccco3)N(C)C)cc2)cc1 (configuration not stated)	-4	.	35*	.	-2	1.1	11%
O=S(=O)(Nc1nc2ccccc2nc1NCc1ccco1)c1ccc(Cl)cc1	10	-2.5	-2.9	-13	5	-0.1	9%
CC(C)(C)OC(=O)NCCC(=O)N/N=C/c1ccc2ncccc2c1	-13	-2.1	0.7	2	0	-3.9	4%
O=C(C1CCC1)N1CCc2cc(S(=O)(=O)N3CCCCC3)ccc21	-9	-1.3	-0.6	-3	7	-2.9	2%
Cc1ccc(NC(=O)CSc2ncc(-c3ccccc3)n2C(=O)c2ccccc2)cc1	0	3.0	-4.3	-7	-4	2.8	8%
Cc1c(C(=O)N2CCN(c3ncccn3)CC2)oc2c(Cl)cccc12	-3	2.6	1.5	5	-5	-1.9	2%
O=C1CSC(=S)N1c1cccc(F)c1	1	0.1	0.5	2	-7	4.3	.
COc1ccc(N2Cc3ccccc3C2=NC(=O)c2ccc(C)cc2)cc1OC	3	-3.4	-0.2	-1	.	6.5	13%
O=C(COC(=O)c1ccc(F)c(S(=O)(=O)N2CCOCC2)c1)NCc1ccc2c(c1)OCO2	-2	.	-2.8	.	-9	2.9	.
O=C1CCc2cc(S(=O)(=O)NC(Cc3ccccc3)C(=O)NCCC3=CCCCC3)ccc2N1 (configuration not stated)	5	-0.3	-0.8	7	-56	0.4	1%
CCOc1ccc(C(CCc2ccccc2)NC(=O)c2ccccc2OC)cc1OCC (configuration not stated)	4	-1.3	0.1	14	0	-1.5	-3%
Cc1cccc(C(=O)NNC(=O)C2CC2)c1	2	-2.4	-3.8	2	-7	-1.2	.
Cc1ccc(OCc2n[nH]c(=S)n2-c2ccc(Br)cc2)cc1	-7	-3.8	-3.0	-3	64	-2.1	.
COc1ccc(CNC(=O)c2cccc(NC(=O)c3ccccc3)c2)cc1	-1	0.4	-1.6	-7	-3	0.7	1%
CC(C)Sc1nnc([C@@H]2CCCN2C(=O)OC(C)(C)C)o1	3	-1.5	-1.2	-11	1	0.8	3%
CN(C)C(=O)c1cc(C(=O)c2ccc(C(F)(F)F)cc2F)c[nH]1	5	3.5	-6.0	4	-2	0.4	6%
CCn1c(CNC(=O)Cc2ccc(OC)cc2)nnc1SCC(=O)c1ccccc1	8	.	.	.	.	1.9	?
S=C(Cc1ccccc1)N1CCOCC1	-6	.	.	.	.	-5.3	-9%
CCOc1ccccc1NC(=O)CCc1nnc2ccc(N3CCC(C)CC3)nn12	-11	-3.9	2.3	2	0	11	.
CCSc1nnc(NC(=O)C2CCCCC2)s1	-8	-0.9	-2.1	29	-8	-3.0	-5%
Fc1ccccc1NC(=S)NN(Cc1ccccc1)c1ccccc1	-2	8.4	.	6	.	38*	-6%
CCCCNC(=O)[C@@H]1CSC2c3ccccc3C(=O)N21 (some centres not stated)	3	6.7	0.6	-3	1	-0.6	11%
Cc1c2cnn(-c3ccccc3)c(=O)c2c(C)n1CCCC(=O)N1CCN(C2CCCCC2)CC1	-10	2.4	6.6	13	0	-0.3	?
Cc1ccc(C(=O)OCC(=O)N2CC(C)CC(C)C2)cc1S(=O)(=O)N1CCOCC1 (configuration not stated)	-2	5.6	0.2	-5	-18	-2.2	-9%
Cc1nc2sc(C(c3ccccc3)N3CC(C)OC(C)C3)c(O)n2n1 (configuration not stated)	-4	1.3	-0.7	-4	-4	2.4	-7%
O=C(NC1CCCC1)NS(=O)(=O)c1ccccc1Cl	-7	3.6	1.1	-5	2	-2.1	10%
COc1ccc(-c2nc(CN3CCC(C(=O)N4CCc5ccccc54)CC3)c(C)o2)cc1OC	23	-3.1	-6.7	-1	-13	2.1	?
CCOC(=O)Cn1c(-c2ccccn2)nc2ccccc21	-3	4.9	4.6	1	0	-1.8	-5%
COCCn1c(SCC(=O)NCc2ccc(OC)c(OC)c2)nc2ccccc21	-3	2.3	-3.2	8	-4	-1.9	.
COC(=O)c1cc(NC(=O)c2c(C)noc2C)ccc1N1CCOCC1	-3	-0.8	-2.7	1	-8	-5.5	.
COc1cc(NC(=O)CN2C(=O)c3ccccc3C2=O)c(C(=O)O)cc1OC	5	1.9	1.3	0	-1	2.3	29%
O=S(=O)(Nc1nc2ccccc2nc1N1CCc2ccccc2C1)c1ccc(Cl)cc1	13	-6.2	2.2	15	-6	4.8	-3%
O=C(CP(=O)(c1ccccc1)c1ccccc1)N/N=C/c1cc(Br)cc(Br)c1O	7	21*	-1.6	1	-2	-0.6	.
CCSc1cc(C2C(C#N)=C(N)OC(C)=C2C(=O)OC)c(C)o1 (configuration not stated)	-3	0.6	-1.2	-3	.	-1.7	6%
C[C@H]1C=C(C(=O)NCc2nc3ccccc3[nH]2)O[C@@H](OCc2ccc(CO)cc2)C1	-6	6.5	-0.4	0	.	1.5	-2%
CC1CCC/C(=C\Nc2ccc(C(=O)O)cc2)C1=O (configuration not stated)	-2	-1.5	5.7	4	-5	0.6	5%

Reprinted at random: 5 records from the list
SMILES	B2AR ag	RanGTP-Impb inh	LANA-H2A inh	Calb FLC	ALR inh	HNF4A DNA FP	Vif TR-FRET
COCCn1c(SCC(=O)NCc2ccc(OC)c(OC)c2)nc2ccccc21	-3	2.3	-3.2	8	-4	-1.9	.
O=C(CP(=O)(c1ccccc1)c1ccccc1)N/N=C/c1cc(Br)cc(Br)c1O	7	21*	-1.6	1	-2	-0.6	.
COC(=O)c1cc(NC(=O)c2c(C)noc2C)ccc1N1CCOCC1	-3	-0.8	-2.7	1	-8	-5.5	.
CCCCNC(=O)[C@@H]1CSC2c3ccccc3C(=O)N21 (some centres not stated)	3	6.7	0.6	-3	1	-0.6	11%
O=S(=O)(Nc1nc2ccccc2nc1N1CCc2ccccc2C1)c1ccc(Cl)cc1	13	-6.2	2.2	15	-6	4.8	-3%

Further records.
SMILES	B2AR ag	RanGTP-Impb inh	LANA-H2A inh	Calb FLC	ALR inh	HNF4A DNA FP	Vif TR-FRET
COc1ccc(CN=C2NC(=O)CC(C(=O)Nc3ccc(F)cc3)S2)cc1 (configuration not stated)	-2	-2.3	3.7	4	-11	1.2	-2%
Cc1cc[n+](CC(=O)c2ccc(NC(=O)c3ccccc3)cc2)cc1	6	1.8	-1.2	-23	12	0.2	1%
COCCn1c(=O)[nH]c(=O)c2cc(C(=O)c3cc(OC)ccc3O)cnc21	-4	-0.7	-5.2	0	4	3.5	24%
CC1(C)Cc2c(C#N)c(NCC3CCCO3)nc(-c3ccco3)c2CO1 (configuration not stated)	2	9.2	-0.2	10	5	0.3	25%
Cc1ccccc1Cn1nnc(-c2ccc(C(=O)O)cc2)n1	9	-2.2	-2.4	4	6	4.1	-3%
COc1ccc(C(=O)C2CCCN(C(=O)c3cccnc3SC)C2)c(C)c1 (configuration not stated)	4	-4.0	-0.8	0	1	1.9	8%
CN1CCN(c2nc(C(N)=O)cc(-c3ccccc3)n2)CC1	-14	5.3	-1.0	-13	-2	1.3	18%
O=C(Cn1c(=O)[nH]n(-c2ccccc2)c1=O)N1CCCc2ccccc21	1	-4.6	1.9	?	-1	0.3	?
Cc1ccccc1NC(=O)COC(=O)CCc1ccccc1	1	?	-3.6	1	-25	-2.0	-7%
O=C(COC(=O)CCSc1ccc(Cl)cc1)NCc1ccccc1	-2	-4.3	-1.0	-5	-34	-3.9	.
CCC1CCCCN1CCCNC(=O)CNC(=O)Cn1ccc2ccccc2c1=O (configuration not stated)	2	-1.8	3.8	4	-6	0.2	?
O=C(Nc1ccccc1)c1ccc(OC(=O)c2cc3ccccc3o2)cc1	13	-4.4	4.1	19	-7	-3.7	-5%
CCSc1nnc(NC(NC(=O)c2ccco2)(C(F)(F)F)C(F)(F)F)s1	-3	-5.9	6.0	-6	-5	0.4	1%
CC(C)(C)c1ccc(C(=O)c2c[nH]c(C(=O)NCc3cccnc3)c2)cc1	6	-2.1	3.0	-13	6	-4.5	10%
Cc1ccc(C(=O)NC2CCN(CC(=O)NC3CCC(C)CC3)CC2)cc1 (configuration not stated)	-2	-0.2	1.0	5	7	1.8	.
Cc1nn(C)cc1S(=O)(=O)N1CCN(c2ccc(F)cc2)CC1	7	5.6	4.1	-4	6	-1.5	2%
CC(c1nc2scc(-c3ccccc3)c2c(=O)[nH]1)N1CCN(CC(=O)NC2CC2)CC1 (configuration not stated)	7	.	.	.	.	3.2	2%
Cc1cc(C)c(NC(=O)CNC(=O)COC(=O)CN2C(=O)NC3(CCCC3)C2=O)c(C)c1	2	4.4	-6.5	14	-14	3.2	14%
CN(C)S(=O)(=O)c1cccc(C(=O)NCCNC(=O)c2cccc(S(=O)(=O)N(C)C)c2)c1	-1	0.3	-18	5	-14	-2.8	-1%
O=C1c2ccccc2NC(c2cccc(O)c2)N1O (configuration not stated)	0	2.6	-1.1	5	12	1.3	2%
O=C1CCCC2=C1C(c1ccc(Br)cc1)c1c([nH]c(=S)[nH]c1=O)N2 (configuration not stated)	3	2.5	0.9	3	83*	-1.3	?
COc1ccc(C(=O)N/N=C/C(Br)=C/c2ccccc2)cc1	0	-2.9	3.0	35	-17	3.7	.
Clc1cccc(-c2noc3ncnc(Nc4ccc5c(c4)OCO5)c23)c1	2	1.6	8.3	8	.	-2.5	.
COc1ccc(-n2c(CNC(=O)COc3ccccc3)n[nH]c2=S)cc1	1	8.2	0.9	-13	0	1.8	.
CCCNC(=O)NC(=O)COC(=O)CNS(=O)(=O)/C=C/c1ccccc1	3	5.3	-4.4	-7	11	-1.3	-1%
COc1ccc(/C=C/C(=O)Nc2ccccc2C(=O)O)cc1	6	-5.3	-2.7	-3	8	1.1	?
N=c1oc2ccccc2cc1-c1nc(-c2ccccc2)cs1	9	44*	3.5	5	-4	-2.6	12%
CN1C(=O)/C(=C/c2ccccc2OCc2cccc(F)c2)NC1=S	-7	2.3	-2.4	-4	-6	1.0	-1%
O=C(CSc1ncn(-c2ccccc2)n1)N1CCN(c2ccccc2)CC1	-21	8.2	-0.5	2	?	-1.1	2%
CC(C(=O)NCCN1CCOCC1)c1ccc([N+](=O)[O-])cc1 (configuration not stated)	-1	0.0	1.8	-7	-1	-1.2	-8%
CCc1ccc(OCC(=O)Nc2ccc(N3CCN(C(=O)c4ccccc4)CC3)cc2)cc1	0	-1.9	-6.1	3	-5	-0.5	.
Cc1nc2sc3c(c2c(=O)[nH]1)CCCC3	4	-0.9	2.0	23	2	1.6	3%
